Mtb bLac sens: beta-lactam sensitization of Mtb H37Rv, H37Rv. 0.27% of 330,000 active. M. tuberculosis H37Rv growth with meropenem, percent inhibition; hits of this screen are not shown here. inhibition, % at 25 µM;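 active = about 74% or more and at least 40 points above the plate without the antibiotic, then above 30% in a dose series; inconclusive = first-round hits that could not be retested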;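 also: growth measured after seven days incubation then overnight dye step; 0% = bacteria only wells and 100% = bacteria with antibiotic; twin plates without the antibiotic show which effects depend on it; some results filed as inactive read as strong as hits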
Active calls of the source: *; ? = inconclusive. Some of the compounds tested; rates above refer to the full screens.

No. | Compound | Mtb bLac sens
1 | O=C(COC(=O)/C=C/c1ccc(Cl)cc1Cl)NCC1CCCO1 (stereo not given) | -3
2 | CCC1(CC)NC(=O)N(CC(=O)N2CCc3ccccc32)C1=O | -4
3 | COC(=O)C1=C(c2cccc(OCc3ccccc3)c2)C[C@@H]2CC[C@H]1N2C(=O)NNCc1ccccc1 | -11
4 | O=C(CCS(=O)(=O)c1ccc(Cl)cc1)N1CCN(c2ccc(F)cc2)CC1 | -18
5 | COc1cccc(NC(=O)c2ccccc2F)c1 | 1
6 | Cc1ccc2c(c1)-n1c(nc3cc(F)ccc3c1=O)C(Cc1ccc(O)cc1)NC2=O (stereo not given) | 1
7 | Cc1ccc(S(=O)(=O)N2CCCN(C(=O)CNC(=O)c3cccc(C)c3)CC2)cc1 | -11
8 | O=C(COc1ccccc1/C=C1\SC(=S)NC1=O)Nc1ccc(F)cc1 | -5
9 | C[C@@]12C(=O)Nc3cc(F)c(F)cc3C(=O)N1[C@H]1c3cc(Cl)ccc3OC[C@@H]1[C@@H]2c1ccccc1 | 4
10 | COc1ccc(C)cc1NS(=O)(=O)c1ccc(Cl)nc1 | 3
11 | Cc1ccc(-c2cc(C(=O)Nc3c(C)n(C)n(-c4ccccc4)c3=O)c3ccccc3n2)cc1 | -7
12 | CC1(C(=O)N/N=C/c2cc3c(cc2Br)OCO3)CC1(Br)Br (stereo not given) | ?
13 | COc1cccc(C2=CC(=O)CC(C)(C)C2)c1 | 0
14 | O=C(C1CCCN1C(=O)c1cccs1)N1CCN(S(=O)(=O)c2ccc(F)cc2)CC1 (stereo not given) | 2
15 | CCOC(=O)C1=C(C)Nc2ccccc2N/C1=N\S(=O)(=O)c1cc(C(=O)O)ccc1Cl | -2
16 | C=CCCO[C@@H]1O[C@@H](C)[C@H](O)C[C@H]1O | -2
17 | CN1CCN(NC(=O)c2cc(-c3ccc(Cl)s3)nc3ccccc23)CC1 | 6
18 | COc1cccc(NC(=O)[C@@H]2CCCN2S(=O)(=O)c2cccc3cccnc23)c1 | -12
19 | CC1(NC(=O)c2cc(Cl)nc3ccccc23)CCS(=O)(=O)C1 (stereo not given) | -2
20 | CC(C)COc1cccc(C(=O)N(C)CC(=O)Nc2cccc3ccccc23)c1 | 2
21 | CC1CCN(C(=O)COC(=O)c2ccc(N3CCCC3=O)cc2)CC1 | 5
22 | COc1ccc(NC(=O)CCOc2ccccc2F)cc1S(=O)(=O)N1CCCCC1 | -7
23 | C[C@@H]1COC(=O)[C@@H](CC(=O)OC(C)(C)C)C/C=C\C[C@H](CC(=O)NCCO)C(=O)N1 | 0
24 | COc1ccc(NC(=O)CSc2nc(O)cc(=O)n2-c2ccc(OC)cc2)cc1 | 4
25 | Cc1ccccc1-c1nnc(CS(=O)(=O)c2ccccc2)o1 | 3
26 | COc1ccccc1NS(=O)(=O)c1ccc(N2CCOCC2)c(N)c1 | -16
27 | O=C(C1CC(=O)N(c2ccccc2F)C1)N1CCOCC1 (stereo not given) | -2
28 | Cc1ccc(OCC(=O)NNC(=O)c2ccc(-n3cncn3)c([N+](=O)[O-])c2)cc1 | -1
29 | CCCCn1c(N)c(N(C(=O)CSc2nnnn2-c2ccccc2)C2CCCC2)c(=O)[nH]c1=O | -2
30 | N#C/C(=C\c1ccc(OCc2ccc(C(=O)O)cc2)cc1)C(=O)NCc1ccccc1 | -1
31 | CC(=O)N1CCN(S(=O)(=O)c2cccc(C(=O)NNC(=O)COc3ccc(F)cc3)c2)CC1 | 3
32 | Cn1ccc(NC(=O)c2ccc(Cl)cc2)n1 | -3
33 | Cc1ccc2c(=O)n3c(nc2c1)C(Cc1ccc(O)cc1)NC(=O)c1ccc(Cl)cc1-3 (stereo not given) | 2
34 | CCCCn1nc(C(=O)NCC2COc3ccccc3O2)c2ccccc2c1=O (stereo not given) | 5
35 | CC(=O)Nc1cccc(C(=O)NNC(=O)c2n[nH]c(=O)c3ccccc23)c1 | -3
36 | O=C(Nc1ccc(C(=O)OC2CCCCC2)cc1)c1ccncc1 | 93
37 | Cc1cc(=O)oc2cc(NC(=O)C(C)N3C(=O)C4CCCCC4C3=O)ccc12 (stereo not given) | 1
38 | CCOc1cc(N2CCOCC2)c(OCC)cc1NC(=O)CSc1ccccc1C(=O)O | 3
39 | O=C(Nc1ccc(C(=O)N2CCC(O)(c3ccc(Cl)c(C(F)(F)F)c3)CC2)cc1)c1ccc(Br)o1 | 4
40 | COc1ccccc1N(CC(=O)Nc1ccccc1)S(=O)(=O)c1cccs1 | -9
41 | CCC(=O)c1ccc(OCC(=O)Nc2nc(C)cs2)cc1 | 68
42 | Fc1ccc2cnc(-c3ccccc3)cc2c1 | 2
43 | O=C(COC(=O)C1=NN(c2ccccc2)C(=O)CC1)Nc1ccc([N+](=O)[O-])cc1C(F)(F)F | -11
44 | Cc1ccc(F)c(C2=CC(=O)C[C@H](c3ccc(F)cc3)C2)c1 | 1
45 | COc1ccc(C(=O)O)cc1S(=O)(=O)Nc1ccc2cn[nH]c2c1 | -3
46 | CCCN(CCC)Cc1c(C(=O)N/N=C/c2ccc(Br)cc2)nnn1-c1nonc1N | -1
47 | N#CCC(=O)Nc1ccc(C(=O)OCC(=O)c2ccc3c(c2)NC(=O)CO3)cc1 | 0
48 | O=C(Nc1cccc(F)c1)[C@@H]1CCCN1 | -2
49 | Cn1cccc1C(=O)OCC(=O)c1ccc(Br)s1 | 12
50 | COc1ccccc1NC(=O)COC(=O)c1ccc2c(c1)OCCO2 | 2
51 | O=C(CSc1nnc(C2CC2)n1CC1CCCO1)Nc1ccccc1Cl (stereo not given) | 1
52 | CCCC(NCC(=O)Nc1cc(S(=O)(=O)N2CCOCC2)ccc1OC)c1ccccc1 (stereo not given) | -6
53 | CN(CC(=O)Nc1ccc(F)c(F)c1F)C(=O)CC1CCCCC1 | 9
54 | Cc1ccc(CNC(=O)c2cccc3c2C(=O)c2ccc(N4CCCCC4)cc2S3(=O)=O)cc1 | -6
55 | CCC1CCc2sc(C(=O)N(C)CC(=O)Nc3ccc(N4CCOCC4)cc3)cc2C1 (stereo not given) | 1
56 | COc1ccc(CCN2CC(C(=O)OCC(=O)N(C)Cc3ccccc3)CC2=O)cc1OC (stereo not given) | 4
57 | CCOC(=O)C1CCCN(C(=O)CCc2nc3sc4c(c3c(=O)[nH]2)CCCC4)C1 (stereo not given) | 0
58 | Cc1ccc(-n2c(C)nnc2SCC(=O)N(C)c2c(N)n(Cc3ccccc3)c(=O)[nH]c2=O)cc1 | -5
59 | O=C(COC(=O)CN1C(=O)c2ccccc2C1=O)Nc1ccccc1[N+](=O)[O-] | -8
60 | CN(C(=O)CSc1ncnc2sc3c(c12)CCC3)C1CCS(=O)(=O)C1 (stereo not given) | -2

New compounds follow
No. | Compound | Mtb bLac sens
61 | O=C(CSc1nc2nn(-c3ccccc3)c(=O)c-2c2n1CCCCC2)c1ccc(O)c(O)c1 | 1
62 | CN(CC(=O)Nc1ccccc1C(F)(F)F)C(=O)Cn1c(=O)oc2ccccc21 | 3
63 | Cc1ccc(C(=O)OCC(=O)NCc2ccc3c(c2)OCO3)cc1S(=O)(=O)N1CCOCC1 | -6
64 | N#Cc1ccccc1OCC(=O)OCC(=O)NCc1ccc2c(c1)OCO2 | -10
65 | CCN(C(=O)Cn1cnc2c1c(=O)n(C)c(=O)n2C)C1CCS(=O)(=O)C1 (stereo not given) | -7
66 | CC1CCCCN1C(=S)NC(=O)c1cc(Br)ccc1Cl (stereo not given) | 54
67 | COc1ccccc1OCc1ccc(C(=O)NCC2CCCO2)cc1 (stereo not given) | -2
68 | COC(=O)[C@]1(C)N[C@H](CN(C)C(=O)Nc2ccc(C)cc2)[C@@H]2C(=O)N(Cc3ccccc3)C(=O)[C@@H]21 | 2
69 | COCCNC(=O)c1ccc2c(c1)S(=O)(=O)c1cc(Cl)ccc1C2=O | -2
70 | Cn1c(=O)cc(SCC(=O)N2CCN(C3CCCCC3)CC2)c2ccccc21 | 1
71 | COc1ccc(C)cc1S(=O)(=O)n1cnc2ccccc21 | -5
72 | O=C(Nc1cccc(C(F)(F)F)c1)C1=CC=CN2CCS(=O)(=O)N=C12 | -4
73 | C[C@H](CO)N1C[C@H](C)[C@@H](CN(C)S(=O)(=O)c2ccccc2)Oc2c(NC(=O)NC3CCCCC3)cccc2C1=O | 11
74 | COc1cc(C(=O)OCC(=O)N(CC(C)C)C2CCS(=O)(=O)C2)cc(OC)c1C (stereo not given) | -5
75 | CCn1c(SCC(=O)N(C)C2CCCCC2)nc2cc(S(N)(=O)=O)ccc21 | 2
76 | CC(C)(O[C@@H]1O[C@H](CO)[C@@H](O)[C@H](O)[C@H]1O)[C@@H]1CC=C(C(=O)O)CC1 | -3
77 | CC1CCCC(NC(=O)Cn2cc(C(F)(F)F)cc(Cl)c2=O)C1C (stereo not given) | 15
78 | CCOc1ccc(C(=O)NCC(=O)N2CCN(c3ccc(C(F)(F)F)cn3)CC2)cc1 | -2
79 | COc1ccc(C(CNC(=O)c2cc(S(=O)(=O)N3CCCC3)ccc2Cl)N2CCCC2)cc1 (stereo not given) | -7
80 | CCc1noc(C)c1C(=O)OCC(=O)Nc1ccc2c(c1)OCO2 | 8
81 | CCn1cc(C(=O)OCC(=O)Nc2ccccc2OC(F)F)c(=O)c2ccc(C)nc21 | 4
82 | O=C(CN1C(=O)NC2(CCCc3ccccc32)C1=O)N1CCN(c2cccc(C(F)(F)F)c2)CC1 (stereo not given) | -2
83 | COc1ccc(NC(=O)CN(C)C(=O)C2CC(=O)N(c3cccc4ccccc34)C2)cc1 (stereo not given) | 2
84 | COc1ccc(C)cc1C1=CC(=O)C[C@H](c2ccc(F)cc2)C1 | 8

Arranged by length of the SMILES (ascending): 6 of the compounds above
No. | Compound | Mtb bLac sens
48 | O=C(Nc1cccc(F)c1)[C@@H]1CCCN1 | -2
41 | CCC(=O)c1ccc(OCC(=O)Nc2nc(C)cs2)cc1 | 68
67 | COc1ccccc1OCc1ccc(C(=O)NCC2CCCO2)cc1 (stereo not given) | -2
64 | N#Cc1ccccc1OCC(=O)OCC(=O)NCc1ccc2c(c1)OCO2 | -10
11 | Cc1ccc(-c2cc(C(=O)Nc3c(C)n(C)n(-c4ccccc4)c3=O)c3ccccc3n2)cc1 | -7
68 | COC(=O)[C@]1(C)N[C@H](CN(C)C(=O)Nc2ccc(C)cc2)[C@@H]2C(=O)N(Cc3ccccc3)C(=O)[C@@H]21 | 2

Continuation:
No. | Compound | Mtb bLac sens
85 | CCOC(=O)C1=C(C)NC(C)=C(C(=O)OCC)C1C(=O)OCC(=O)NCc1ccco1 | 1
86 | Fc1ccc(CCN2CCN=C2Nc2ccccc2)cc1 | -6
87 | CC(C)C[C@@H](CN1C(=O)C(=O)NC[C@@H]1CC(C)C)NC(=O)Cc1ccccc1 | -5
88 | COc1ccc(CCNC(=O)COc2ccc3c(C)cc(=O)oc3c2)cc1 | 7
89 | COc1ccc(NC(=O)COC(=O)c2ccc(OC)c(S(=O)(=O)N3CCCC3)c2)cc1OC | 1
90 | O=C(O)c1cc(Cl)c(Cl)cc1C(=O)NCc1ccco1 | 7
91 | CC(C)Cn1c(N)c(C(=O)CSc2nnc(-c3ccco3)n2C)c(=O)n(C)c1=O | 0
92 | Cc1ccc(NS(=O)(=O)c2ccc(NC(=O)c3ccccc3C(=O)O)cc2)cc1C | -5
93 | COc1ccc(C2=Nn3c(nnc3-c3ccccc3C(F)(F)F)SC2)cc1OC1CCOC1 (stereo not given) | -3
94 | O=C(Nc1nc(-c2cccs2)cs1)c1ccc([N+](=O)[O-])o1 | 100
95 | COc1ccccc1CCC(=O)OCC(=O)NCc1ccc(OC)c(OC)c1 | -4
96 | COc1ccc([C@H]2CC(=O)C=C(c3cc4ccccc4s3)C2)cc1OC | 7

Exported as labelled records: entries from further up
[86] Fc1ccc(CCN2CCN=C2Nc2ccccc2)cc1
  Mtb bLac sens = -6
[87] CC(C)C[C@@H](CN1C(=O)C(=O)NC[C@@H]1CC(C)C)NC(=O)Cc1ccccc1
  Mtb bLac sens = -5
[88] COc1ccc(CCNC(=O)COc2ccc3c(C)cc(=O)oc3c2)cc1
  Mtb bLac sens = 7

(listing goes on)
No. | Compound | Mtb bLac sens
97 | Cc1ccc(-c2nc(N)nc(N)n2)c(C)c1 | -3
98 | CC(=O)N1CCN(C(=O)c2ccc3c(c2)OCO3)CC1 | -8
99 | O=C(O)c1cccc(-n2sc3ccccc3c2=O)c1 | 1
100 | C[C@H]1CN=C(N(C)C)N1CC1CCCCC1 | -9
101 | O=C(CSc1ncc(C(F)(F)F)cc1Cl)N1CCNC1=O | -2
102 | CSCc1c(C(=O)Nc2ccccc2N2CCOCC2)oc2ccccc12 | -7
103 | Cc1ccccc1NC(=O)Cc1nc(COC(=O)c2ccc(C(F)(F)F)cc2)cs1 | 3
104 | COc1cc(C(=O)Nc2ccc(OCC(=O)N3CCOCC3)cc2C)cc(OC)c1OC | -4
105 | COC(=O)C1=C(c2ccc(C(C)=O)cc2)C[C@@H]2CC[C@H]1N2C(=O)NCc1ccc2c(c1)OCO2 | 7
106 | O=C(NC(CC1CCCCC1)C(=O)O)c1ccccc1 (stereo not given) | 3
107 | O=C(C1Cc2ccccc2CN1C(=O)c1ccco1)N1CCN(c2ccccc2)CC1 (stereo not given) | 0
108 | CC1CCN(S(=O)(=O)c2ccc(C(=O)N3CCCC3C(=O)O)cc2)CC1 (stereo not given) | -10
109 | C[C@]12c3[nH]c4ccccc4c3CCN1C(=O)C(CC(=O)NCCCn1ccnc1)C[C@@H]2C(=O)N1CCCCC1 (stereo not given in full) | -6
110 | CCCCCCCNC(=O)C1(CC2CC(c3ccccc3)=NO2)CCN(C(=O)OC(C)(C)C)CC1 (stereo not given) | 2
111 | CC(C)NC(=O)Nc1ccc2c(c1)C(=O)N([C@H](C)CO)C[C@@H](C)[C@@H](CN(C)C(=O)NC1CCCCC1)O2 | -5
112 | CCN(c1ccccc1)S(=O)(=O)c1ccc(OC)c(NC(=O)CN2C(=O)NC(C)(C)C2=O)c1 | -3
113 | CCOc1ccc(N2C(=O)C(Cl)=C(N3CCOCC3)C2=O)cc1 | 75
114 | O=C(Nc1ccccc1C(=O)NC1CC1)c1ccccc1F | -7
115 | Cn1c(N)c(C(=O)COC(=O)c2ccccc2C(=O)c2ccc(Cl)c([N+](=O)[O-])c2)c(=O)n(C)c1=O | 10
116 | Nn1c(SCC(=O)Nc2cccc(Br)c2)nnc1C1CC1 | -3

Screening results (PubChem)
